Vaccinia mCherry: inhibitors of vaccinia virus infection (mCherry reporter signal). AID 720579. 0.63% of 310,000 active. Potency, µM (doses to about 36.5 µM), inactives show at the highest dose activity change, negative = inhibition, usual class: inhibitors. Vaccinia virus mCherry reporter infection, fluorescence; about a quarter of the inactives have no number; active = well fitted inhibition curve with a large enough effect; inconclusive = small, poorly fitted or top-dose-only effect; inactive = no such curve, though single readings can be large or run the other way; tested in A549 cells; further: nearly all actives have a fitted effect of over 35% in size; inactives centre near -10
Vaccinia Venus: inhibitors of vaccinia virus (Venus reporter) | Vaccinia virus Venus reporter expression, fluorescence | Potency, µM (titrated, usually from 36.5 µM), for inactives: top-dose activity change, negative = inhibition, actives largely listed as inhibitors | 0.46% of 330,000 active | AID 720580; active means well fitted inhibition curve with a large enough effect; inconclusive means small, poorly fitted or top-dose-only effect; inactive means no such curve, though single readings can be large or run the other way; tested in A549 cells; further: nearly all actives have a fitted effect of over 30% in size; inactives centre near -10
* marks the source's active call; other numbers are inactive results; i = inactive; ? = inconclusive; . = not tested or not shown; & = joins results of further samples; [ ] = remark or other dose. On the % scale 0 is the no-effect control and ±100 the full control effect; potency means the concentration at half of the fitted maximal effect. Rows were taken by chance; any-hit rate near 0.87%.

SMILES | Vaccinia mCherry | Vaccinia Venus
Cc1ccc(Oc2cc(NN3CCCCC3)c([N+](=O)[O-])cc2[N+](=O)[O-])c(Cl)c1 | -3% | -17%
COCCn1c(=NC(=O)c2ccc(S(=O)(=O)N3CCc4ccccc4C3)cc2)sc2cc(OC)ccc21 | -4% | -1%
Cc1cc(Nc2ccc(Br)c(C)c2)n2nc(C)nc2n1 | ? | -20%
COCCn1c(SCC(N)=O)nc2c(c1=O)SC(C)C2 (stereo not drawn) | -14% | 0%
COc1cccc(C2CC(c3ccccc3Cl)Nc3nc(N)nn32)c1 (stereo not drawn) | -18% | -15%
Cc1nn(C)cc1C1C2=C(CC(C)(C)CC2=O)OC2=C1C(=O)CC(C)(C)C2 | -9% | 8%
Cc1[nH]c2ccccc2c1C(=O)COC(=O)Cn1cnc2ccccc21 | i | -3%
Cc1cc(Cl)ccc1NC(=O)C1CCN(c2nnc(-n3c(C)ccc3C)s2)CC1 | -9% | -5%
CCOC(=O)C1=CC[C@@H](c2ccccc2)N(S(=O)(=O)c2ccc(C)cc2)[C@@H]1C#N | ? | -13%
CCOc1ccccc1C(=O)N1CCN(CCc2ccccn2)CC1 | -2% | 3%
O=C(Cn1cc(SCc2ccc(F)cc2)c2ccccc21)N1CCCCCC1 | -5% | -12%
CCCCC(=O)OCC(=O)Nc1ccc(SC(F)F)cc1 | -5% | -14%
Cc1ccccc1OCC(=O)Nc1ccc2c(c1)n(C)c(=O)n2C | i | -13%
CC(C)NC(=O)C1(C)CCN1C/C=C/c1ccccc1 (stereo not drawn) | 10% | 0%
O=C(CCS(=O)(=O)c1ccc(F)cc1)N1CCOCC1 | 12% | 2%
Cc1cc(C)cc(NC(=O)CSc2nnc(C3CC3)n2CC2CCCO2)c1 (stereo not drawn) | -13% | -4%
OC(COCc1cccs1)CN1CCN(c2ccccn2)CC1 (stereo not drawn) | -2% | -15%
CCn1cc2c(n1)-c1c(oc(C(=O)Nc3cccc(C(F)(F)F)c3)c1C)CC2 | -10% | -5%
Cc1cc(C)[n+](-c2ccc(F)cc2)c2[nH]c(=O)[nH]c(=O)c12 | -14% | -12%
C=C(C)C1Cc2c(C)nn(-c3cccc4cccnc34)c2C1 (stereo not drawn) | -24% | -6%
O=S1(=O)Cc2cc3ccccc3cc2C1 | 3% | -1%
COc1ccc(C2NCc3ccc4c(c3-n3cccc32)OCO4)cc1OC (stereo not drawn) | ? | ?
COc1ccc(NC(=O)C2CC(c3ccccc3Cl)=NO2)cc1 (stereo not drawn) | -14% | -13%
COc1ccc(NC(C)=O)cc1NC(=O)CSc1nnc(-c2ccccc2)n1N | -13% | -7%
NC(=O)[C@@H]1CCCNc2c(I)cc([N+](=O)[O-])cc2C(=O)N[C@@H](Cc2ccccc2)C(=O)N[C@@H](Cc2cnc[nH]2)C(=O)N1 | i | -2%
COCc1cc(C)nc2sc(C(=O)Nc3ccccc3Br)c(N)c12 | -21% | -8%
O=C(CCc1nnc2n(Cc3ccccc3Cl)c(=O)c3ccccc3n12)Nc1ccc(F)c(F)c1 | ? | -26%
O=C(C1CCCO1)N1CCN(S(=O)(=O)c2cc(F)ccc2F)CC1 (stereo not drawn) | i | 2%
O=C(CCCCCCCC(=O)N1CCCCCC1)N1CCCCCC1 | i | -6%
COc1cc(/C=N/NC(=O)CC2(C)OCCO2)cc(Br)c1O | i | 6%
CCOc1ccc(NC(=O)c2ccc3c(=O)n4c(nc3c2)CCCCC4)cc1 | -5%&-15% | ?
CNC(=O)c1ccccc1NC(=O)C1CC(=O)N(c2ccc(OC)cc2)C1 (stereo not drawn) | 1% | 5%
O=C(c1ccco1)N1CCN(Cc2cc(=O)c(OCc3ccc(F)cc3)co2)CC1 | -6% | -1%
Cc1ccccc1-n1nc2c(c1NC(=O)c1ccc3c(c1)OCO3)CS(=O)(=O)C2 | i | -14%
CC(C)n1nnnc1SCC(=O)N1N=C(c2cccs2)CC1c1cccs1 (stereo not drawn) | -2% | -8%
CNS(=O)(=O)c1cccc(C(=O)NCC(c2ccco2)N(C)C)c1 (stereo not drawn) | -7% | -9%
COc1ccccc1N(C)S(=O)(=O)c1ccc(C)c(C(=O)NC(C)c2ccccn2)c1 (stereo not drawn) | i | -24%
CCOP(=O)(OCC)C(NC(=O)Nc1ccc(Cl)c(Cl)c1)c1ccccc1 (stereo not drawn) | ? | ?
Cc1ccc2occ(/C=N/NC(=O)c3ccc(Cl)cc3)c(=O)c2c1 | -16% | -3%
COCCNC(=O)c1ccc(-n2c(-c3ccccc3)cc3c2CCC(C)C3)cc1 (stereo not drawn) | ? | ?

2 of these compounds, set out differently.
Each structure is followed by: Vaccinia mCherry	Vaccinia Venus
O=C(c1ccco1)N1CCN(Cc2cc(=O)c(OCc3ccc(F)cc3)co2)CC1
 : -6%	-1%
Cc1ccccc1-n1nc2c(c1NC(=O)c1ccc3c(c1)OCO3)CS(=O)(=O)C2
 : i	-14%

Other compounds follow:
SMILES | Vaccinia mCherry | Vaccinia Venus
Cc1ccc(N(C(=O)C2CCCC2)C2C=CS(=O)(=O)C2)cc1C (stereo not drawn) | -21% | -15%
COCCn1cnc2c1c(=O)n(Cc1cc(C(C)=O)ccc1OC)c(=O)n2Cc1ccccc1 | -9% | 1%
Cc1cc(-c2ccnc(-n3ncc(C(=O)N4CCCCC4c4cccnc4)c3C3CC3)n2)c(C)s1 (stereo not drawn) | 0% | -6%
CCCCCCCNc1ccc(/C=C/c2ccnc3ccccc23)cc1 | 34%[activator] | 15%
Cc1nc(NC(=S)NC(=O)COc2ccc(Cl)cc2)ccc1Br | -15% | 3%
Cn1ccnc1P(=S)(c1nccn1C)N1CCOCC1 | -18% | -5%
COc1ccc(-c2noc(C3CC(=O)N(c4ccc(C)c(F)c4)C3)n2)c(OC)c1 (stereo not drawn) | 4% | 7%
CCOC(=O)CCCn1ccc2cc(S(=O)(=O)N3CCCC3)ccc21 | -7%[7.34 µM] | -3%[7.34 µM]
Cc1cc2c(ncn2Cc2ccccc2)c(N)c1C | -8% | -8%
COCCN(C(=S)Nc1cccc(Cl)c1C)C(C)c1ccco1 (stereo not drawn) | i | -21%

Six entries from above, reformatted:
| Compound | Vaccinia mCherry | Vaccinia Venus |
| --- | --- | --- |
| OC(COCc1cccs1)CN1CCN(c2ccccn2)CC1 (stereo not drawn) | -2% | -15% |
| Cc1cc(C)[n+](-c2ccc(F)cc2)c2[nH]c(=O)[nH]c(=O)c12 | -14% | -12% |
| Cc1nc(NC(=S)NC(=O)COc2ccc(Cl)cc2)ccc1Br | -15% | 3% |
| O=C(Cn1cc(SCc2ccc(F)cc2)c2ccccc21)N1CCCCCC1 | -5% | -12% |
| CCOc1ccccc1C(=O)N1CCN(CCc2ccccn2)CC1 | -2% | 3% |
| CCOC(=O)CCCn1ccc2cc(S(=O)(=O)N3CCCC3)ccc21 | -7%[7.34 µM] | -3%[7.34 µM] |

Other entries.
SMILES | Vaccinia mCherry | Vaccinia Venus
C=CCn1c(-c2ccccc2)nc(=S)c2c1CCCC2 | -5% | -11%
COc1cc(C(=O)Nc2nnc(S(=O)(=O)N3CCCCCC3)s2)cc(OC)c1OC | -14% | -9%
Cc1ccc(-c2cc(C(=O)N3CC(C)CC(C)C3)c3ccccc3n2)o1 (stereo not drawn) | -28% | -22%
CCCCCOC(=O)CSc1nc2sc3c(c2c(=O)n1Cc1ccccc1)CC(C)(CC)OC3 (stereo not drawn) | -3% | -5%
CCCCn1c(N)c(N(CCOC)C(=O)C2CCN(S(=O)(=O)c3ccccc3)CC2)c(=O)[nH]c1=O | i | -3%
O=C1CCN(Cc2ccccc2)S(=O)(=O)c2c(F)cc(F)cc21 | i | -17%&-15%
CCCOc1ccc(CNC(=O)C2CCN(c3nnc(N4CCCC4=O)s3)CC2)cc1 | i | -7%
CC(C)(C)N=Cc1cc(-c2ccccc2)sc1O | -13% | -21%
COCc1ccc(C(=O)NC2CC(C)(C)Cc3c2cnn3-c2ccc(OC)cc2)o1 (stereo not drawn) | 5% | -6%
CCn1ccc2cc(S(=O)(=O)N3CCCN(C(=O)Nc4ccccc4OC)CC3)ccc21 | -7% | -2%

2 entries drawn at random from those above, as already listed:
SMILES | Vaccinia mCherry | Vaccinia Venus
CC(C)n1nnnc1SCC(=O)N1N=C(c2cccs2)CC1c1cccs1 (stereo not drawn) | -2% | -8%
C=C(C)C1Cc2c(C)nn(-c3cccc4cccnc34)c2C1 (stereo not drawn) | -24% | -6%

Further compounds follow:
SMILES | Vaccinia mCherry | Vaccinia Venus
O=C(OCC(=O)N1CCCc2ccccc21)c1cccc(S(=O)(=O)N2CCOCC2)c1 | -22% | -13%
COc1ccc(N(CC(=O)NCCSCc2ccccc2C)S(=O)(=O)c2ccccc2)cc1 | i | -25%
CC(C)(C)n1nnc(CCc2nnn(C(C)(C)C)n2)n1 | . | -14%
CCN(CC)S(=O)(=O)c1ccc(N2CCOCC2)c(NC(=O)C2CCCC2)c1 | i | -9%
COCCNS(=O)(=O)c1ccc(C2CNC(=O)C2)cc1 (stereo not drawn) | -9% | 3%
CC1=C(C(=O)Nc2ccccc2)C(c2ccc(Cl)cc2)n2c(s/c(=C/c3cccc(OCC(=O)O)c3)c2=O)=N1 (stereo not drawn) | -1% | -9%
O=S(=O)(Nc1cccc(CCc2ccccn2)c1)c1ccc2ccccc2c1 | -16% | -18%
Cc1ccc(S(=O)(=O)c2nc(-c3ccccc3Cl)oc2N(C)C2CCN(C)CC2)cc1 | -28% | ?
COCCNC(=O)c1onc(CSc2ccc(C(C)C)cc2)c1C(=O)O | -3% | -7%
CCn1c(=O)c2cc(C(=O)Nc3cccc(C(F)(F)F)c3)sc2c2ccccc21 | 9% | -9%
CC(C)OC(=O)CSc1n[nH]c(-c2cccnc2)n1 | -13% | -14%
COc1ccccc1CN1CCNC(=O)C1CC(=O)NC1Cc2ccccc2C1 (stereo not drawn) | -7% | -14%
CC(C)(C)c1ccc(C(CC(=O)O)NC(=O)CCCc2ccccc2)cc1 (stereo not drawn) | -1% | -3%
Cc1cc(NC(=O)c2cc3nc(C4CC4)cc(C(F)(F)F)n3n2)no1 | -20% | -4%
COc1cc(C)nc2nc(SCc3ccccc3)nn12 | -14% | -6%
COc1ccc(NCC(=O)N/N=C/C(C)c2ccccc2)cc1 (stereo not drawn) | -14% | -2%
CC(C)c1ccc(S(=O)(=O)N2CCN(CC(=O)Nc3ccccc3C(F)(F)F)CC2)cc1 | -11% | -2%
O=C(Cn1cc(C(F)(F)F)ccc1=O)NC(c1ccccc1)c1ccccc1 | -6% | -12%
Cc1cccc(NC(=O)CN2C(=O)N/C(=C/c3ccc(-c4cccc(C(=O)O)c4C)o3)C2=O)c1 | i | -2%
CCCNC(=O)N1[C@H]2CC[C@@H]1C(C(=O)OC)=C(c1ccc(F)cc1OCc1ccccc1)C2 | -26% | -5%
N#CC(=C(O)COC(=O)CCC1CCCCC1)c1nc2ccccc2[nH]1 | -6% | -1%
C=CCNC(=O)c1ccccc1NC(=O)c1ccccc1C | -13% | -10%
Cc1ccccc1C(=O)Nc1ccccc1C(=O)OCc1cc(=O)n2nc(C3CC3)sc2n1 | -10% | -11%
O=c1cc(-c2cc3ccccc3o2)c2cc(O)ccc2o1 | ? | -23%
Cc1cccc(CSc2nnc(NC(=O)c3ccco3)s2)c1 | -13% | -6%
Cc1ccc(NC(=O)Cn2cc(S(=O)(=O)c3ccc(F)cc3)c(=O)c3cc(F)ccc32)cc1 | -24% | -25%
CCc1ccc2nc(N3CCN(C)CC3)c(C#N)cc2c1 | -15% | -5%
O=C1CC/C=C\C[C@@H](CC(=O)N(CCO)Cc2ccccc2)C(=O)NCCO1 | i | -5%
CCc1ccccc1NC(=O)c1ccc(NS(C)(=O)=O)cc1 | i | -7%
O=C(CSc1nncc(=O)[nH]1)NCc1ccccc1 | -7% | 0%
O=C(C1CCC(Cn2c(=O)c3sccc3n(Cc3ccccc3F)c2=O)CC1)N1CCOCC1 (stereo not drawn) | -14% | -17%
COc1ccccc1NC(=O)Cn1cnc2c(nc3n2CCCCC3)c1=O | -14%&2% | -13%&6%
CC(=O)N1CC(C(=O)Nc2ccc3c(c2)OCO3)Oc2ccccc21 (stereo not drawn) | -20% | -10%
CCCCCCCCCCCCC(O)C(=O)O (stereo not drawn) | -14%[3.33 µM] | -7%[3.33 µM]
CCOC(=O)N1CCC(NC(=O)c2ccc3c(Cl)c4c(nc3c2)CCCC4)CC1 | ? | ?
CCn1ccc2cc(S(=O)(=O)N3CCCN(C(=O)NCC(C)C)CC3)ccc21 | -9% | 10%
Cc1ccc(CNC(=O)C(c2ccccc2)c2ccccc2)cc1 | -7% | 2%
CSc1ncnc2c1ncn2CCCNCc1ccc(C)o1 | i | -4%
CC(C)(C)OC(=O)N1CCC(Cc2cc(-c3cccc(Br)c3)no2)(C(=O)O)CC1 | -30% | -5%
O=C(C/C=N\OCc1ccc([N+](=O)[O-])cc1)Nc1ccc(Br)cc1 | -28% | -11%
Cc1cc(C(=O)N/N=C/c2cccc(Cl)c2Cl)no1 | i | -12%
CC(=O)N1CCn2c3c(c4cc(C)ccc42)CCCC31 (stereo not drawn) | ? | -8%
CCOc1ccc(C(=O)NC(=S)Nc2ccccc2N2CCCCC2)cc1[N+](=O)[O-] | -26% | -11%
Cc1ccnc(SCc2cc(=O)c(OC(=O)c3ccc(S(=O)(=O)N(C)C)cc3)co2)n1 | -4% | -14%
Cc1cccc(-n2c(SCc3cc(=O)n4ccsc4n3)nc3ccccc3c2=O)c1 | . | -9%
Cn1cc(CN2CCCCC2c2ccccn2)c(-c2ccc3c(c2)OCCO3)n1 (stereo not drawn) | i | ?
CC(C)OCC(O)Cn1c(N2CCCC2)nc2c1c(=O)[nH]c(=O)n2C (stereo not drawn) | -8% | -6%

Screens: PubChem, National Center for Advancing Translational Sciences (NCATS)
